Source: PubChem (several laboratories)
Mtb bLac sens: beta-lactam sensitization of Mtb H37Rv, H37Rv. M. tuberculosis H37Rv growth with meropenem, percent inhibition; hits of this screen are not shown here. inhibition, % at 25 µM. 330,000 tested, 0.27% active;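 active means about 74% or more and at least 40 points above the plate without the antibiotic, then above 30% in a dose series; inconclusive means first-round hits that could not be retested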;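 further: growth measured after seven days incubation then overnight dye step; 0% = bacteria only wells and 100% = bacteria with antibiotic; twin plates without the antibiotic show which effects depend on it; some results filed as inactive read as strong as hits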
YopH inh: YopH tyrosine phosphatase inhibitors, primary screen, biochemical, fluorescence Ex485/Em525 | YopH tyrosine phosphatase [Yersinia enterocolitica] | inhibition, %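 (about 10 µM by stock and volumes)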 | 140,000 tested, 0.16% active | AID 898, 2007;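 active means inhibition of 50% or more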;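 further: controls were vehicle for no effect and minimum signal wells for full effect; inactives centre near -20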
Mtb growth: M. tuberculosis H37Rv growth inhibitors, H37Rv strain (AID 1626). M. tuberculosis H37Rv growth inhibition; higher % means a stronger effect. inhibition, % at 10 µM, or IC50 in µM where a hit was titrated. 220,000 tested, 0.95% active;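 active means confirmed in a dose series; inconclusive means inhibition above 80% but not taken into the dose series; inactive means below 80% or under 30% at every dose of the series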;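 further: bacteria incubated seven days before Alamar blue readout; 0% = bacteria only wells and 100% = bacteria with antibiotic wells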
RecA intein inh: Mtb RecA intein splicing inhibitors, primary screen, biochemical, fluorescence, HTS; inhibition, %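 (about 9 µM by stock and volumes)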; 290,000 tested, 0.75% active; Protein RecA (Mycobacterium tuberculosis (strain ATCC 25618 / H37Rv)), P9WHJ3; cell-free RecA intein splicing; in the data active means inhibition above about 30%; inconclusive means no clear call, values can overlap the other calls;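 further: 0% = vehicle wells and 100% = reference inhibitor control wells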
Target sequence (P9WHJ3 whole entry, looked up): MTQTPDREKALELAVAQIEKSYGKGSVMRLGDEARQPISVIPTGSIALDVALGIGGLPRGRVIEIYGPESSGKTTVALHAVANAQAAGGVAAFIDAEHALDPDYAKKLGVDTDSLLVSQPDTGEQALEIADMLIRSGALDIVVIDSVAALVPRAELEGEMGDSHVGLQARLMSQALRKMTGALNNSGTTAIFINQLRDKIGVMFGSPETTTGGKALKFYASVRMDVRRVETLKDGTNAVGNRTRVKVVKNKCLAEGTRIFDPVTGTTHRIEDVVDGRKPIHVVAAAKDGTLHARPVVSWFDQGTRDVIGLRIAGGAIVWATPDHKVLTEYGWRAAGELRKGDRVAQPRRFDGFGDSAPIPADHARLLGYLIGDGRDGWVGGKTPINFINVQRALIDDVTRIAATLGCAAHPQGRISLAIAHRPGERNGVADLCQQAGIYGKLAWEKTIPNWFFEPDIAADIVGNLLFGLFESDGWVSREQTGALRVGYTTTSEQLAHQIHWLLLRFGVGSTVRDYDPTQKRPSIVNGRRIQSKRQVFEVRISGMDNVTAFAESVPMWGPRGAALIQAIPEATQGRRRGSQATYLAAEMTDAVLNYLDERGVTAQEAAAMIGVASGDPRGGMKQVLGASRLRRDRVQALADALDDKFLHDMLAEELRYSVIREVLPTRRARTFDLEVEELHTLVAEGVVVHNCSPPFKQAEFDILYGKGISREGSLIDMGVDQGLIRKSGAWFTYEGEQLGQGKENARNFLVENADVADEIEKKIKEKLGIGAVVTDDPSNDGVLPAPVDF
Arbovirus anti: antivirals against arbovirus infection, primary screen, cell-based, full library, 10K replicate subset. inhibition, % at 10 µM. arbovirus infection cell-based antiviral screen. 200,000 tested, 0.37% active. AID 1251, 2008;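 active means inhibition from about 30%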;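 further: bluetongue infection of BSR cells; cell survival read as ATP light after 72 h; 0% = infected wells without compound and 100% = uninfected wells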
Arbovirus anti repeat: further read-out of Arbovirus anti, marked with its call; inhibition, %; measured here: 10K subset replicate screen; many hits read low in the repeat;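 first of two repeat runs on a subset; 0% = infected and 100% = uninfected wells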
Active calls of the source: *; ? = inconclusive; nt = no result given.

SMILES | Mtb bLac sens | YopH inh | Mtb growth | RecA intein inh | Arbovirus anti | others
O=C(NCC(=O)N1CCN(c2ccccc2O)CC1)c1ccc(Br)o1 | -8 | nt | nt | -1.7 | nt
COc1ccc(NC(=O)N2CCCC2C(=O)NCCc2ccccc2)cc1 (stereo not drawn) | -4 | nt | nt | -3.7 | nt
CCOC(=O)c1cn2c(C)cccc2n1 | -5 | nt | 9% | nt | 6
Cc1cc(OCC(=O)NNC(=O)c2cccs2)ccc1Br | 0 | nt | nt | 2.1 | nt
Cc1ccc(NC(=O)NC2CC(=O)N(c3ccc4c(c3)OCCO4)C2)c(C)c1 (stereo not drawn) | 6 | nt | nt | -1.2 | nt
CC(=O)c1ccc(NC(=O)Cn2cnc(S(=O)(=O)N3CCCCC3)c2)cc1 | 3 | nt | nt | -0.4 | nt
COC(=O)N/N=C\c1cc2c(cc1Br)OCO2 | -7 | nt | -8% | -3.8 | -9
Cc1oc2c(c(C)cc3oc(=O)c(CC(=O)N[C@H](C(=O)O)C(C)C)c(C)c32)c1C | -1 | nt | nt | -7.8 | nt
Cc1c(C(=O)Nc2cccc(Cl)c2)oc2ccc(S(=O)(=O)N3CCC4(CC3)OCCO4)cc12 | -9 | -52 | nt | -4.6 | -7
O=C(Nc1nc(-c2ccc3c(c2)OCO3)cs1)C1CC1 | 0 | -13 | 14% | 0.7 | 10
COc1ccccc1-n1c(C)nnc1SCC(=O)NCc1ccccc1 | 6 | -37 | 4% | 0.4 | -1
NC(=O)Cc1nc2scc(-c3ccc(Cl)cc3)c2c(=O)[nH]1 | -3 | nt | 0% | -1.6 | -3
O=C(O)CCCN1C(=O)NC2NC(=O)NC21 (stereo not drawn) | -9 | -39 | -7% | 1.1 | 6
O=C(O)c1ccc(NCc2cccnc2)cc1 | -1 | -1 | -1% | -0.3 | 9
CCc1ccc(CN(C)Cc2nc(Cc3cccc(C(F)(F)F)c3)no2)nc1 | 77 | nt | 78% | 0.1 | -4
O=C(/C=C/c1ccc(OC(F)F)cc1)OCC(=O)N1CCN(C(=O)c2ccco2)CC1 | ? | -14 | 11% | -1.9 | -7
CC(C)(C)C(=O)N1CCC(O)(CS(=O)(=O)c2ccc(Cl)c(Cl)c2)CC1 | -6 | nt | -1% | -0.6 | 12
Cc1cc(N2C(=O)C(O)=C(C(=O)c3ccc(C)o3)C2c2ccc(OCc3ccccc3)cc2)no1 (stereo not drawn) | 24 | nt | nt | 1.4 | nt
COc1ccc(N2C(=O)[C@@H]3[C@H](C2=O)[C@H]2c4ccccc4C=CN2[C@@H]3C(C)=O)cc1 | 1 | 61* | 1% | 11 | -9
O=C(NC(=S)Nc1ccccc1N1CCOCC1)c1ccc(-c2cccc(Cl)c2)o1 | 7 | -30 | -6% | -2.5 | 2
COC(=O)c1ccc(C(=O)N=c2sccn2C)cc1 | 0 | nt | nt | -0.3 | nt
CCOP(=O)(OCC)C(O)c1cccnc1 (stereo not drawn) | 7 | nt | -7% | 0.4 | nt
Cc1cccc(C)c1NC(=O)CN(C)C(=O)c1ccc(COc2ccccc2)cc1 | ? | nt | nt | 3.3 | nt
CCC(C)(C)n1nnnc1C(c1ccc(Cl)cc1)N1CCN(C)CC1 (stereo not drawn) | 3 | -17 | 3% | -3.9 | 1
CCN(CC)c1ccc(/C=N/N2CCN(Cc3ccccc3Cl)CC2)cc1 | 4 | nt | nt | 1.6 | nt

12 successive compounds out of the list so far, quoted:
SMILES | Mtb bLac sens | YopH inh | Mtb growth | RecA intein inh | Arbovirus anti | others
O=C(NCC(=O)N1CCN(c2ccccc2O)CC1)c1ccc(Br)o1 | -8 | nt | nt | -1.7 | nt
COc1ccc(NC(=O)N2CCCC2C(=O)NCCc2ccccc2)cc1 (stereo not drawn) | -4 | nt | nt | -3.7 | nt
CCOC(=O)c1cn2c(C)cccc2n1 | -5 | nt | 9% | nt | 6
Cc1cc(OCC(=O)NNC(=O)c2cccs2)ccc1Br | 0 | nt | nt | 2.1 | nt
Cc1ccc(NC(=O)NC2CC(=O)N(c3ccc4c(c3)OCCO4)C2)c(C)c1 (stereo not drawn) | 6 | nt | nt | -1.2 | nt
CC(=O)c1ccc(NC(=O)Cn2cnc(S(=O)(=O)N3CCCCC3)c2)cc1 | 3 | nt | nt | -0.4 | nt
COC(=O)N/N=C\c1cc2c(cc1Br)OCO2 | -7 | nt | -8% | -3.8 | -9
Cc1oc2c(c(C)cc3oc(=O)c(CC(=O)N[C@H](C(=O)O)C(C)C)c(C)c32)c1C | -1 | nt | nt | -7.8 | nt
Cc1c(C(=O)Nc2cccc(Cl)c2)oc2ccc(S(=O)(=O)N3CCC4(CC3)OCCO4)cc12 | -9 | -52 | nt | -4.6 | -7
O=C(Nc1nc(-c2ccc3c(c2)OCO3)cs1)C1CC1 | 0 | -13 | 14% | 0.7 | 10
COc1ccccc1-n1c(C)nnc1SCC(=O)NCc1ccccc1 | 6 | -37 | 4% | 0.4 | -1
NC(=O)Cc1nc2scc(-c3ccc(Cl)cc3)c2c(=O)[nH]1 | -3 | nt | 0% | -1.6 | -3

(cont.)
SMILES | Mtb bLac sens | YopH inh | Mtb growth | RecA intein inh | Arbovirus anti | others
Cn1nc(NC(=O)CC23CC4CC(CC(C4)C2)C3)c2c(F)cccc21 | -2 | nt | 10% | -2.6 | nt
CC(=O)c1ccc(NC(=O)c2ccc(S(=O)(=O)c3ccccc3)cc2)cc1 | 0 | -26 | 1% | -3.0 | -6
C/C(N)=C(/C#N)C(=O)COc1ncnc2ccccc12 | -6 | -55 | -11% | 0.5 | 0
CCCCS(=O)CC(O)COc1ccc(C(C)(C)C)cc1 (stereo not drawn) | 2 | -29 | 9% | 0.3 | -2
O=C(CCS(=O)(=O)c1ccccc1)N1CCN(c2ccccc2)CC1 | -3 | nt | nt | -2.6 | nt
CCOc1ccc(NS(=O)(=O)c2ccc(C(=O)N3CCCCCC3)cc2)cc1 | -8 | nt | nt | -0.7 | nt
O=C(CSc1nc2cc(Cl)ccc2c(=O)n1Cc1ccco1)Nc1ccc(S(=O)(=O)N2CCOCC2)cc1 | -6 | -33 | 5% | -4.9 | 4
C=CCn1c(CSCc2ccccc2)nnc1SCC(=O)N1CCN(c2ccccc2)CC1 | 11 | -15 | -1% | 1.1 | 3
Cc1ccc(CCNC(=O)c2cc(S(=O)(=O)N3CCOCC3)cn2C)cc1 | 2 | nt | nt | -0.1 | nt
O=C(Cc1ccc(-c2ccccc2)cc1)NCCN1CCOCC1 | 7 | -12 | 2% | -0.4 | -1
COc1ccc(Br)c(-c2nnc(CS(=O)(=O)c3ccccc3)o2)c1 | -1 | nt | nt | -0.8 | nt
CCC[C@@H]1C[C@@]1(CCC)[C@@H](NC(=O)c1ccccc1)c1ccc(C(=O)OC)cc1 | -8 | -22 | 16% | 2.1 | 11
COc1cccc(/C=N/NC(=O)CC(=O)NCCc2ccccc2)c1OC | 2 | -26 | -5% | -3.0 | 0
CCCOCCOC(=O)C1=C(C)NC(=O)NC1c1cc(Cl)c(O)c(OC)c1 (stereo not drawn) | -4 | -32 | -7% | 1.3 | 3 | Arbovirus anti repeat=-4
CCOC(=O)c1ccc(NC(=O)CSc2nnc(C3CCCCC3)n2C)cc1 | 41 | 30 | 44% | 1.0 | -1
CCCC(=O)NCCc1cc2ccc(C)c(C)c2[nH]c1=O | 0 | -16 | -1% | 1.5 | 1 | Arbovirus anti repeat=0
CCOC(=O)c1cnc2c(Cl)cccc2c1NCCN(C)C | 2 | 1 | -4% | 0.8 | 10
O=c1[nH]c2cnccc2n1-c1ccccc1 | -37 | -16 | 4% | nt | 8
Cc1ccc(C(=O)OCC(=O)N(C)c2ccccc2)cc1C | -7 | nt | nt | 0.5 | nt
CC(=O)[C@@H]1[C@@H]2C(=O)N(c3ccccc3F)C(=O)[C@@H]2[C@H]2c3ccccc3C=NN12 | -4 | nt | -7% | -3.4 | nt
C=CCN(c1cccc(C(F)(F)F)c1)S(=O)(=O)c1cccc(C(=O)OCC(=O)NC)c1 | 46 | -22 | 2% | 0.5 | 2
Cc1ccc(CN(C)C(=O)COC(=O)CSc2ccc([N+](=O)[O-])cc2)cc1 | 79 | nt | nt | 1.8 | nt
COCCN(C(=O)CNC(=O)c1ccco1)C(C(=O)NC1CCCC1)c1cccc(OC)c1 (stereo not drawn) | 1 | nt | nt | 0.7 | nt
O=C(/C=C/c1cccc(Br)c1)NCC1CCCCC1 | 11 | -24 | -3% | -2.8 | 9
CC(Oc1cc2oc(=O)c3c(c2cc1Cl)CCCC3)C(=O)NCC1CCC(C(=O)O)CC1 (stereo not drawn) | 1 | nt | nt | -0.7 | nt
(list continues)
SMILES | Mtb bLac sens | YopH inh | Mtb growth | RecA intein inh | Arbovirus anti | others
COc1ccc(CC(=O)N2N=C(C)CC2(O)c2cccnc2)cc1 (stereo not drawn) | 7 | -13 | 0% | -5.1 | -3
C=CCn1c(SCC(=O)NCC2CCCO2)nc2c([nH]c3ccccc32)c1=O (stereo not drawn) | 1 | nt | nt | -1.8 | nt
CCn1c(=O)c(C(=O)Nc2ccccc2S(N)(=O)=O)c(O)c2ccccc21 | 7 | -20 | 3% | 2.9 | 13
O=C(Cc1c(F)cccc1Cl)Nc1ccccc1N1CCCCC1 | -1 | nt | 9% | 9.8 | 15
O=C(CSc1nnc(NC(=O)c2ccccc2)s1)NC1CCCC1 | -5 | nt | nt | 0.1 | nt
Cc1nnc(SCc2nnc(-c3ccc(Cl)cc3)o2)n1-c1ccccc1 | -3 | nt | 0% | -3.4 | nt
COc1ccccc1NS(=O)(=O)c1cccc(C(=O)N/N=C2\CC(=O)CC(C)(C)C2)c1 | 4 | -7 | 9% | -4.1 | -5
COc1cccc(NC(=O)CN(C)CC(=O)Nc2ccc(C)c([N+](=O)[O-])c2)c1 | -4 | nt | nt | 2.7 | nt
COc1ccc(C(=O)NCC2CCCN2S(=O)(=O)c2cccs2)cc1 (stereo not drawn) | -13 | nt | nt | 1.0 | nt
CCCCC[C@H]1CN(Cc2ccc(OC)cc2)C(=O)[C@@H]1CC(=O)NCc1ccccc1 | -8 | nt | nt | 10 | nt
CC(C)[C@@H](N)C(=O)N/N=C/c1ccc2ncccc2c1 | 4 | nt | -7% | 4.9 | nt
CN(C)C(CNC(=O)CSc1nc2ccccc2c(=O)n1Cc1ccco1)c1ccccc1 (stereo not drawn) | -1 | nt | nt | 3.3 | nt
OC1CCN(c2c3c(nc4cc(-c5ccc(Cl)cc5)nn24)CCC3)CC1 | 47 | -31 | 8% | -1.9 | -4
COc1cc(N(C(=O)Cc2cccs2)C(C(=O)NC2CCCCC2)c2ccc(C)cc2)ccc1-n1cnnn1 (stereo not drawn) | 20 | -17 | 2% | 0.7 | -33
CCNc1ncnc2c1cnn2C | -2 | nt | -11% | -1.8 | 5
CCN(CC)S(=O)(=O)c1ccc(C(=O)Nc2cccc(C)c2)cc1 | -2 | 13 | -5% | 4.3 | -21
Cc1ccc(/C=C2/C(=O)N=C(N)N2C)s1 | -1 | -26 | -2% | 4.1 | 6
O=C(CCCCCN1C(=O)[C@@H]2Cc3ccccc3CN2C1=O)Nc1cccc(F)c1 | -2 | nt | nt | 2.0 | nt
CC(SCC(=O)O)c1nc2ccccc2[nH]1 (stereo not drawn) | -5 | nt | 11% | -0.4 | nt
CCc1ccccc1NC(=O)Cn1nc(C(F)(F)F)cc1C1CC1 | -4 | -27 | 5% | 1.3 | 1
CC(=O)O[C@H]1C[C@@H]2CC[C@@H]3[C@H](CC[C@@]4(C)[C@H]3C[C@H]([N+]3(C)CCCCC3)[C@@H]4OC(C)=O)[C@@]2(C)C[C@@H]1N1CCCCC1 | 1 | nt | -5% | 2.1 | nt
COc1ccc(CCNC(=O)CCc2cc(OC)c(OC)c(OC)c2)cc1OC | 5 | nt | nt | -0.2 | nt
Cc1nonc1OCCn1nnnc1N | 2 | -35 | -10% | 0.4 | 3
Cc1c(N(C)S(=O)(=O)c2cc(C(=O)Nc3ccccn3)ccc2Cl)c(=O)n(-c2ccccc2)n1C | -4 | nt | nt | -0.5 | nt
COc1ccc(NC(=O)CCS(=O)(=O)c2ccc3nc(C)sc3c2)cc1OC | 3 | nt | nt | 2.8 | nt
O=C(COc1ccccc1)Nc1cc(C(F)(F)F)ccc1N1CCCC1 | nt | -31 | 13% | 2.5 | -1
CCSc1nc2c(c(=O)n1-c1ccc(F)cc1)SCC2 | -1 | -17 | -10% | -1.7 | -3 | Arbovirus anti repeat=-7
COC(C[C@H]1O[C@H]1C(=O)[C@@H](C)OCc1ccccc1)OC | -7 | nt | -5% | 0.5 | nt

An excerpt (hit frequency here may not be typical).
